Source: PubChem
HNF4A DNA FP: change in binding of human HNF4 alpha to DNA; P41235; HNF4a-FITC DNA binding, fluorescence polarization, 1 h; activity change, % at 10 µM; 360,000 tested, 0.3% active; in the data active = activity change above about 30%, passing the limit was not always enough;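 note: controls were the assay level and a saturating level of protein; the project sought stronger binding though the title names inhibitors; some compounds called inactive have numbers as strong as hits; positive values seem to mean higher polarization but the record does not say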
Target sequence (P41235 whole entry, looked up): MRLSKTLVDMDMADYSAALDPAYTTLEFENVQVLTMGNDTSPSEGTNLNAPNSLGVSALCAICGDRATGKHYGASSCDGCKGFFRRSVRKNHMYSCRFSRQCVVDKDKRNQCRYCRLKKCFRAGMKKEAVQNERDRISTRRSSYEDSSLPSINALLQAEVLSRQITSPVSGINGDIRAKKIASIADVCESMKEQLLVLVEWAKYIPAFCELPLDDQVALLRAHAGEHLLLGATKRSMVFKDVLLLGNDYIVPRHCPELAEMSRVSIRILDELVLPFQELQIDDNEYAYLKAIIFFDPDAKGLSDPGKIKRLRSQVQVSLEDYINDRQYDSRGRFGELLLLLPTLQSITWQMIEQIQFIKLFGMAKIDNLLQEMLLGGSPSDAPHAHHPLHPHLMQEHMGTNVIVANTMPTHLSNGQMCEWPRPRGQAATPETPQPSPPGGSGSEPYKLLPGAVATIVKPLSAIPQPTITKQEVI
Calb FLC: C. albicans growth modulation with fluconazole; growth inhibition, % (concentration not given with the values); 300,000 tested, 0.57% active; C. albicans CaCi-2 (fluconazole-resistant clinical isolate) + fluconazole, Alamar Blue growth, 48 h;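 active = most replicates above 75%; inconclusive = exactly half above 75%; inactive = most below 75%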;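 note: all wells also contain fluconazole at 8 µg/ml as a sub-toxic cotreatment; 0% = median of DMSO wells and 100% = median of geldanamycin control wells; wells of about 8 µL received 7.5 nL stock; the first replicate is given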
LANA-H2A inh: blocks KSHV LANA binding to histone H2A/H2B; cell-free LANA-H2A/H2B peptide, fluorescence polarization; inhibition, % (test concentration not listed); 320,000 tested, 0.6% active; in the data active = inhibition mostly above about 10%, no sharp cut-off; inactive = mostly below about 6.7%;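 note: stock transfer was 7.5 nL into about 10 µL; 0% = median of vehicle wells and 100% = median of positive control wells; one replicate is shown; the record names a cut of 25% in any replicate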
ALR inh: blocks human ALR sulfhydryl oxidase activity. purified ALR, DTT oxidation, H2O2 HRP-luminol luminescence. 290,000 tested, 3.8% active. inhibition, % (test concentration not listed). P55789;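 active = mean and each replicate at 75% or more; inconclusive = only one of the two met; inactive = neither met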;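 note: stock transfer was 7.5 nL into about 7.5 µL; 0% = neutral wells and 100% = wells with inactivated enzyme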
Target sequence (P55789 whole entry, looked up): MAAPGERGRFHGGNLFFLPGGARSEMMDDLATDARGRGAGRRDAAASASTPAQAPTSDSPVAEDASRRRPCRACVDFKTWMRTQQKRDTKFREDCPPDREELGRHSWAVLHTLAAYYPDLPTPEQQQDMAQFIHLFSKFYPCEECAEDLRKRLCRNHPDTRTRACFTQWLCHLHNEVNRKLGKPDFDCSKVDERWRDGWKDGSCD
RanGTP-Imp inh: disruptors of Ran-importin-beta complex formation – biochemical, FRET, CFP-Ran, YFP-importin-beta, homogeneous, primary screen; cell-free CFP-Ran/YFP-importin-beta FRET ratio; inhibition, % (no concentration beside the values); 300,000 tested, 1.1% active; AID 2216;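 active = most replicates above 15%; inconclusive = exactly half above 15%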;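 note: 0% = DMSO wells and 100% = Ran loaded with GDP instead of GTP; wells of about 40 µL received 100 nL stock; the first replicate is given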
Vif TR-FRET: inhibitors of Vif binding to APOBEC3G peptide, primary screen, biochemical, TR-FRET, GST-Vif 1-94, biotin-A3G peptide, dose response retest (AID 1117319); TR-FRET GST-Vif / biotin-A3G peptide binding; higher % means a stronger effect; test concentration not given here; strong numbers were not always called active; inhibition, %, or IC50 in µM where a hit was titrated; 260,000 tested, 0.57% active;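 active = above the screen mean plus three standard deviations and confirmed in dose response; inconclusive = results disagree or hit not tested in dose response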;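 note: Vif residues 1-94 fused to GST binding biotinylated APOBEC3G peptide 110-148; 0% = full assay without inhibitor and 100% = GST in place of GST-Vif; retest series ran down from 100 µM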
B2AR ag: agonists of human beta-2 adrenergic receptor inducing internalization; P07550; Am2.2-beta2AR cells, FAP receptor internalization, flow cytometry; reference of the scale not given here; response, % (concentration not given with the values); 340,000 tested, 0.43% active; AID 504454;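 active = response above a set limit, near 3 SD of response in nonfluorescent compounds, cut at about 42% in these data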;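 note: stock transfer was 100 nL into about 11 µL; a reference agonist was the positive control; negative values mostly stem from fluorescent compounds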
Target sequence (P07550 whole entry, looked up): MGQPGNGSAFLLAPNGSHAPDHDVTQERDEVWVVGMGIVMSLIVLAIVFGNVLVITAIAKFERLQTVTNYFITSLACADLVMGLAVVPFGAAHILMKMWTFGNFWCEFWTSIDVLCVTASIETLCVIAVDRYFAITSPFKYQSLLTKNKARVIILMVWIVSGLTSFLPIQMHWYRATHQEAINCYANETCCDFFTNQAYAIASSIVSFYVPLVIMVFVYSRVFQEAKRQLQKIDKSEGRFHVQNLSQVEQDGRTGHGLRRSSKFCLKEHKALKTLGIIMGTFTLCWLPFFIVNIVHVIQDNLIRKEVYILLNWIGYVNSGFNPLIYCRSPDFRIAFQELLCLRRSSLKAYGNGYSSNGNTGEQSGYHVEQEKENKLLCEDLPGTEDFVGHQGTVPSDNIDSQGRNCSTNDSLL
Numbers without * were called inactive; i = inactive; ? = inconclusive; . = no result given.

SMILES | HNF4A DNA FP | Calb FLC | LANA-H2A inh | ALR inh | RanGTP-Imp inh | Vif TR-FRET | B2AR ag
CCCc1nc2cc(CC(=O)OC)ccc2o1 | 2.4 | -18 | 2.9 | -4 | -3.7 | 15% | -1
C/C=C/c1ccc(OCCNCc2ccccc2)c(OC)c1 | 3.3 | -4 | -3.7 | 2 | -2.9 | . | 18
CCCCC(=O)NC(c1cccc([N+](=O)[O-])c1)c1c(OC(C)=O)ccc2ccccc12 (centres undefined) | -0.7 | 22 | -0.1 | 0 | 2.6 | -8% | 9
Cc1cc(NC(=O)CSc2nnc(C3CC3)n2C)no1 | 0.5 | -10 | -1.1 | -11 | 2.5 | ? | 5
c1ccc(-c2noc(-c3cccnc3)n2)nc1 | -2.2 | -11 | 0.0 | . | 1.7 | 6% | -79
O=C(NNc1ccc(Cl)cc1)C1CCC1 | 0.3 | 85* | 0.6 | 46 | 0.6 | 16% | 5
COc1cccc(CNC(=O)CN2C(=O)COc3ccc(S(=O)(=O)N4CCC(C)CC4)cc32)c1 | 4.3 | -3 | -2.5 | 2 | 2.6 | . | 2
Nc1nn(-c2ccccc2)c2ccc([N+](=O)[O-])cc12 | 0.2 | 14 | -7.6 | ? | 5.1 | -2% | -4
CCN(CC)C(=O)N1CCN(C(=O)c2ccc(C)cn2)CC1 | -0.4 | -17 | -6.2 | 2 | -3.7 | 3% | 2
CCC(=O)NC(=S)Nc1ccc(NC(=O)c2ccc(C)c([N+](=O)[O-])c2)cc1 | -3.9 | 26 | 2.3 | -22 | 2.4 | . | -10
O=C1NC(c2ccccc2)C(C(=O)c2cccs2)=C1O (centres undefined) | 3.0 | 3 | 3.0 | 5 | ? | 0% | 1
O=C(COc1ccccc1)NCc1ccccc1 | -1.4 | -4 | -6.7 | 4 | -0.1 | -1% | 5
O=C(NC(=S)Nc1cccc2[nH]ncc12)c1ccccc1 | 4.9 | -9 | 1.9 | . | -0.1 | -28% | -4
Cc1ccc(C)c(-c2csc(N)c2C(=O)OC(C)C)c1 | -2.7 | 6 | 1.3 | 27 | -0.6 | -2% | 13
Nc1ccc(S(=O)(=O)NNC(=O)C(=O)NNc2ccccc2)cc1 | 0.5 | 106* | . | . | 3.0 | -8% | -4
COc1ccc(CNc2ccc3cn[nH]c3c2)c(OC)c1OC | 1.3 | 26 | 3.0 | . | 6.5 | 11% | 12
C=CCn1c(=N)n(CC(O)COc2ccccc2OC)c2ccccc21 (centres undefined) | -0.3 | -9 | -3.9 | 1 | ? | 18% | -6
CC(=O)C[C@H]1c2cc(C(F)(F)F)ccc2S(=O)(=O)N1C1CCCC1 | -0.2 | -5 | 1.9 | -7 | -4.8 | . | 4
CCN(Cc1ccncc1)C(=O)c1ccccc1NS(=O)(=O)c1ccc(Br)cc1 | -3.3 | 30 | -0.9 | -2 | -1.2 | 1% | -6
CN1CCC(NC(=O)Nc2ccc(Br)cc2)CC1 | -0.6 | -2 | i | -1 | 1.0 | 1% | -2

Shown with tabs: 5 of the compounds above
Structure	HNF4A DNA FP	Calb FLC	LANA-H2A inh	ALR inh	RanGTP-Imp inh	Vif TR-FRET	B2AR ag
c1ccc(-c2noc(-c3cccnc3)n2)nc1	-2.2	-11	0.0	.	1.7	6%	-79
CCN(Cc1ccncc1)C(=O)c1ccccc1NS(=O)(=O)c1ccc(Br)cc1	-3.3	30	-0.9	-2	-1.2	1%	-6
O=C(NC(=S)Nc1cccc2[nH]ncc12)c1ccccc1	4.9	-9	1.9	.	-0.1	-28%	-4
CCN(CC)C(=O)N1CCN(C(=O)c2ccc(C)cn2)CC1	-0.4	-17	-6.2	2	-3.7	3%	2
CCCc1nc2cc(CC(=O)OC)ccc2o1	2.4	-18	2.9	-4	-3.7	15%	-1

Carrying on:
SMILES | HNF4A DNA FP | Calb FLC | LANA-H2A inh | ALR inh | RanGTP-Imp inh | Vif TR-FRET | B2AR ag
NS(=O)(=O)c1ccc(CCNC(=O)CN2CCC(Cc3ccccc3)CC2)cc1 | 2.8 | -14 | -3.0 | . | -3.6 | 5% | -5
O=C(COC(=O)c1ccccc1C(=O)c1ccc(Cl)cc1)NCCc1ccccc1 | -1.3 | 2 | -1.7 | -18 | 1.8 | . | 9
O=c1[nH]c(C2CCN(S(=O)(=O)Cc3ccccc3)CC2)nc2c1nnn2Cc1ccccc1Cl | 0.5 | -3 | -4.1 | -4 | 2.7 | . | 1
CCn1c(NCc2cc(OC)c(OC)c(OC)c2)nc2ccccc21 | -3.1 | 21 | -0.7 | 97* | 4.1 | 2% | -5
COC(=O)c1ccc(NC(=O)CCc2nnc3ccc(NCc4ccco4)nn23)cc1 | 2.7 | 7 | 2.6 | -4 | 5.0 | . | 11
Cc1ccc(N(CC(=O)NCc2cccs2)S(=O)(=O)c2cccs2)cc1 | 3.6 | 17 | -4.6 | 8 | 1.8 | -2% | 2
COc1cc(/C=C2/SC(=S)N(C)C2=O)ccc1OC(=O)c1ccco1 | 49* | 9 | 2.8 | 2 | . | -9% | -8
c1ccc(C(NCCNC(c2ccccc2)c2ccccc2)c2ccccc2)cc1 | -0.1 | -4 | 3.5 | 3 | -2.8 | -6% | 14
O=C(Nc1cccc(-c2cccc(Cl)c2)c1)C1CCN(Cc2ccon2)CC1 | 4.1 | 5 | -3.4 | -4 | 1.4 | . | -3
O=C(NCCNC(=O)c1ccccc1[N+](=O)[O-])c1ccccc1[N+](=O)[O-] | 5.9 | 3 | -1.7 | -2 | 2.2 | . | 11
O=C(c1ccc2ncsc2c1)N1CCCC(C(F)(F)F)C1 (centres undefined) | -1.0 | -3 | -1.1 | 10 | -2.5 | 0% | -9
Cc1ccc(C(=O)C(NC(=O)c2ccco2)N2CCOCC2)cc1 (centres undefined) | -3.2 | 2 | 8.6 | -9 | 3.5 | 1% | 14
O=C(Cn1cc(C(F)(F)F)cc(Cl)c1=O)NCc1ccc(Cl)cc1Cl | -1.5 | -8 | -1.4 | -9 | 1.6 | . | -9
CCOC(=O)c1cc(-c2ccc(N3CCOCC3)cc2)nn1-c1ccccc1C(=O)O | -49 | -4 | 5.8 | 0 | 0.8 | ? | -3
COc1ccc(S(=O)(=O)N2CCCCCC2)cc1C(=O)Nc1ccccn1 | -1.5 | -7 | -1.5 | -3 | 0.6 | . | -9
Cc1ccc(C(=O)N2CCN(c3nc4ccccc4n3C)CC2)cc1 | 1.3 | . | -2.1 | 6 | -0.6 | -11% | -7
CN1CCN(C(c2ccccn2)c2cc(Cl)c3cccnc3c2O)CC1 (centres undefined) | 3.6 | 101* | 4.5 | 19 | 10 | -8% | 2
Cc1sc2nc(CN(C(=O)NC3CCCCC3)C3CCCCC3)[nH]c(=O)c2c1C | -2.8 | -5 | -6.7 | 3 | -1.8 | 0% | 8
Cc1ccc(N2C(=O)CC(NCC3CCCO3)C2=O)cc1 (centres undefined) | 0.3 | 15 | 2.1 | 4 | 4.4 | 5% | 1
COc1cccc(/C=N/N2CCN(c3ccncc3S(=O)(=O)N3CCCCC3)CC2)c1 | -0.1 | 1 | 1.5 | -36 | 8.0 | 2% | 75*
COc1ccccc1C(=O)NCC(=O)Nc1cccnc1 | 2.1 | 11 | -3.5 | . | -1.4 | -12% | -3
O=C(N/N=C/c1cccnc1)C1CCCN(S(=O)(=O)c2ccccc2)C1 (centres undefined) | 1.6 | -2 | 0.0 | -2 | 0.6 | 0% | -6
CCCCn1nnnc1SCC(=O)Nc1ccc(C)cc1 | -3.5 | 0 | 2.0 | 0 | 0.2 | -1% | 2
O=C(CSc1nnc(-c2ccco2)o1)NCC(=O)c1ccccc1 | 2.5 | 11 | -1.9 | -7 | ? | 8% | 1
COC(=O)c1nc(NC(=O)c2ccc(F)cc2)n[nH]1 | 0.8 | 1 | . | . | -1.7 | -3% | 7
C[C@@H](O)CC#Cc1ccc2oc(=O)c(-n3cc(-c4ccsc4)nn3)cc2c1 | 2.0 | . | -3.3 | 1 | . | . | -8
CC(C)C[C@@H](CN)NC(=O)c1nc[nH]c1C(=O)N[C@@H](C)C(=O)CNC[C@H](CC(C)C)NC(=O)c1nc[nH]c1C(=O)N[C@@H](CC(=O)O)C(=O)O | 3.5 | . | . | . | . | 3% | 6
Cc1oc(-c2ccccc2)nc1C(=O)N1CCN(c2ccc(F)cc2)CC1 | 0.1 | 35 | 0.7 | . | -0.6 | . | -5
Cc1cc2ccccc2c(=O)n1CC(=O)NCC(=O)N(C)C1CCCCC1 | -2.4 | -18 | 2.0 | . | -1.2 | 1% | -2
COc1cccc(C2C3=C(N=c4s/c(=C\c5ccccc5O)c(=O)n42)c2ccccc2CC3)c1OC (centres undefined) | . | -2 | -3.5 | -5 | -0.7 | -4% | .
N=C1SC(CC(=O)Nc2ccc([N+](=O)[O-])cc2)C(=O)N1c1ccccc1 (centres undefined) | -1.8 | 7 | 0.3 | -11 | 0.2 | -4% | 0
Cc1ccc(S(=O)(=O)N/N=C/c2cccc(OC3CSC3)c2)cc1 | -6.9 | -3 | 0.4 | . | 4.1 | ? | -3
CC(C)(C)C(=O)O/N=C1\CCS(=O)(=O)c2sccc21 | 1.2 | 3 | -2.9 | 5 | -3.2 | . | -6
CC1CCCCN1S(=O)(=O)c1ccc(-n2cnnn2)cc1 (centres undefined) | -1.5 | -2 | -4.8 | 1 | -3.2 | . | -6
Cc1occc1C(=O)NNC(=O)Nc1ccc(Cl)c(Cl)c1 | -2.5 | 1 | 1.3 | 3 | 1.3 | 0% | 10
N#Cc1ccc(CO/N=C/c2ccccc2)cc1 | 2.1 | -2 | 3.8 | -5 | -1.5 | 6% | 6
COc1ccc(C2C=C(c3ccc(Br)cc3)Nc3nc(NS(C)(=O)=O)nn32)cc1 (centres undefined) | . | 22 | 32* | 70 | -185 | -5% | .
CC(C(=O)Nc1cc([N+](=O)[O-])ccc1Cl)N1CCN(c2ccccc2)CC1 (centres undefined) | 3.2 | 11 | 3.2 | 2 | ? | . | 1
CN(CCc1ccccn1)C(=O)c1ccc(OC2CCN(CCc3ccccc3)CC2)cc1 | -5.2 | 2 | 0.4 | -9 | 2.9 | . | -10
CC(Sc1ccsc1[N+](=O)[O-])C(=O)NCCc1ccc(Cl)cc1 (centres undefined) | 0.6 | 7 | -5.0 | . | -10 | -3% | -4
O=C(COc1ccccc1[N+](=O)[O-])N(C1CCCCC1)C1CCS(=O)(=O)C1 (centres undefined) | 0.7 | 8 | -12 | -16 | 6.8 | -2% | 1
O=C(NNc1nc2cc3c(cc2s1)OCO3)c1cccc(F)c1 | -3.6 | -1 | -1.5 | 3 | 2.2 | . | -4
COc1ccc(NC(=O)CN(C)C(=O)/C=C/c2cn(Cc3ccccc3)nc2-c2cccnc2)cc1 | 7.1 | -1 | . | . | -0.6 | -6% | -5
CCCCn1nnc(NC(=S)NC(=O)c2cccs2)n1 | -1.4 | ? | -2.6 | . | ? | . | -2
O=C(Oc1ccccc1)c1ccccc1 | -5.1 | . | . | . | . | -2% | 2
Cc1cc(C(=O)N/N=C/C=C/c2ccccc2)c(C)o1 | -0.8 | 2 | 3.7 | -5 | -3.1 | . | -8
c1ccc2c(c1)C(=Nn1cnnc1)c1ccccc1-2 | 0.2 | -1 | 0.9 | 0 | -4.1 | 6% | -1
CN(C(=S)Nc1ccc(F)cc1)C1(c2ccccc2Cl)CCCCC1=O (centres undefined) | 7.8 | 0 | . | . | -1.7 | -2% | -4
OCn1ncn(-c2ccccc2)c1=S | -0.1 | -4 | 1.6 | 92* | -0.9 | ? | -1
Cc1cc(N)ccc1-c1cc2ccccc2oc1=O | 3.9 | -1 | 2.4 | 99* | -3.2 | . | 11
Cc1cc(C(=O)NCc2cccs2)nn1C | -0.1 | 2 | -1.1 | -5 | -4.3 | . | -3
